# Bioassay records from PubChem.
# H5N1 CPE = MDCK cell protection from H5N1 avian flu; cytopathic effect, luminescence, 72 h; stronger effect = higher value; no value below 0 was filed and about half of the inactive calls have no number; reference of the scale not given here; inhibition, % at 50 µM; 0.07% of 96,000 active; in the data active = inhibition above about 25%
# Starred values were filed as active, the others as inactive; i = inactive. An excerpt. The share of hits here may be higher or lower than overall.
No.	smiles	H5N1 CPE
1	CCCC1C2C(=O)N(c3ccccc3OC)C(=O)C2ON1c1ccccc1 (configuration not stated)	i
2	O=C(CN1CCN(c2nc(-c3ccc(F)cc3)cs2)CC1)NCc1ccc2c(c1)OCO2	i
3	COC(=O)C(C)Sc1nc2c(c(=O)n(C)c(=O)n2C)n1Cc1cccc(C)c1 (configuration not stated)	0.6
4	CC1CC(c2ccccc2)n2nc(N3C(=O)c4ccccc4C3=O)nc2N1 (configuration not stated)	0.4
5	O=C(CSc1nc2ccccc2o1)N1CCCC1	i
6	O=C(CSc1ccccc1)NCc1cccnc1	0.9
7	CSc1nnc(-c2ccc(NC(=O)CCc3ccccc3)cc2)n1C	i
8	CC(C)(C)C1CCc2onc(C(=O)Nc3cccc(O)c3)c2C1 (configuration not stated)	0.2
9	N#Cc1c2n(c3c(-c4ccccc4)ncnc13)CCC2	1.0
10	COc1ccccc1Oc1coc2c(CN3CCN(C)CC3)c(O)ccc2c1=O	0.2
11	CCOc1ccc(C(=O)Nc2cccc(-c3nc4cccnc4o3)c2)cc1Cl	i
12	O=C(O)CCCNS(=O)(=O)c1ccc(F)cc1	i
13	Cc1ccccc1CS(=O)(=O)Cc1ccc(C(=O)NCc2ccco2)o1	i
14	CC(CN1CCOCC1)(NS(=O)(=O)c1ccccc1)c1ccccc1 (configuration not stated)	i
15	OC(C#CCN1CCOCC1)(c1ccccc1)C1CC1 (configuration not stated)	1.5
16	Cc1cccc(OCC(=O)N(C)CCc2ccccn2)c1	i
17	COc1ccc(CNC(N)=O)cc1OC	i
18	CCOC(=O)N1CCN(c2c(-c3ccccc3)c3cc(Cl)ccc3[nH]c2=O)CC1	0.6
19	COc1ccc(CNC(=O)c2csc(Cc3ccc(Cl)cc3)n2)cc1	i
20	OC12CCCCC1C(c1ccccc1)NCC2 (configuration not stated)	0.1
21	COC(=O)c1nnn(-c2nonc2N)c1CSc1nc2ccccc2o1	i
22	Cc1c[n+]([O-])n(-c2ccc(C(=O)O)cc2)n1	i
23	CC(=O)c1ccc(NC(=O)c2ccc(S(=O)(=O)N3CCCC3)cc2)cc1	i
24	CCC(C)(C)n1nnnc1C(c1cc2cc(C)ccc2[nH]c1=O)N1CCCC1 (configuration not stated)	i
25	COc1cccc(CSc2nnc(-c3ccco3)n2C)c1	0.6
26	Cc1ccc(S(=O)(=O)CCSc2nc(C)cc(C)c2C#N)cc1	1.8
27	CCCCN(CCCC)S(=O)(=O)c1ccc(NC(=O)Cc2cccs2)cc1	0.3
28	CC1CCCCC1NC(=O)Cn1cnc2ccccc2c1=O (configuration not stated)	i
29	O=C(Nc1ccc(Cl)cc1)N1CCSc2ccccc21	1.9
30	COc1ccc(CCN(C(=O)COc2ccccc2)c2nc(-c3ccccc3)cs2)cc1OC	4.3
31	COc1ccc(CCC(=O)Nc2ccc(Br)cn2)cc1	i
32	Cc1ccc(C(=O)CCC2CCCCC2=O)cc1 (configuration not stated)	0.5
33	COc1ccc(N2CCN(CCNC(=O)c3nnc(Cc4c(F)cccc4Cl)o3)CC2)cc1	0.5
34	CCOc1ccc(N=c2oc3cc(O)ccc3cc2C(=O)NCC2CCCO2)cc1 (configuration not stated)	i
35	NC(=S)Nc1cccc2cnccc12	1.1
36	Cc1ccc(-n2c(N)c(C(=O)N3CCN(C)CC3)sc2=S)cc1	0.7
37	Cc1nn(Cc2ccc(F)cc2)c(C)c1NC(=O)c1noc2c1CCc1ccccc1-2	1.0
38	CC1CCN(C(=O)Cn2c(=O)oc3ccccc32)CC1	i
39	Cc1ccc(-c2ccc(CCC(=O)O)n2Cc2ccco2)cc1	0.6
40	COc1ccc(/C=C(/C#N)C(=O)NC2CCCCC2)cc1Br	0.4
41	Cc1ccccc1Cn1cc(NC(=O)CSc2nc3c(c(C(F)(F)F)n2)CCc2ccccc2-3)cn1	2.2
42	Cc1cc(C)n(C(=O)COc2c(C)cccc2C)n1	0.5
43	O=C(NCc1nc2ccccc2[nH]1)c1ccc(S(=O)(=O)N2CCOCC2)cc1	i
44	CC(=O)Nc1ccc(NC(=O)c2sc3nc4c(c(-c5ccc(C)cc5)c3c2N)CCC4)cc1	i
45	CC(C)C(=O)c1cc2c(cc1NC(=O)c1ccccc1)OCCO2	0.3
46	CNCCCOc1cccc(OC(C)C)c1	i
47	CN(Cc1nc(-c2ccncc2)no1)S(=O)(=O)c1ccc(Cl)cc1	0.7
48	O=C(O)c1ccc(CNc2ccccc2C(=O)O)cc1	0.0
49	CCC(=O)N1CC(=O)Nc2ccc(Cl)cc2C1c1ccc(F)cc1 (configuration not stated)	0.3
50	Nc1c(-c2ccc(Cl)cc2)cnn1-c1cccc(C(F)(F)F)c1	i
51	CCCCCOC(=O)C1=C(C)Nc2nnnn2C1c1ccccc1Cl (configuration not stated)	10.6
52	Cc1ccc(NC(=O)CSC2=C(C#N)C(c3ccco3)C3=C(CCCC3=O)N2)cc1 (configuration not stated)	0.8
53	O=C(CCNc1cccc(Cl)c1)c1cccs1	i
54	CN1CCC(O)(c2ccccc2)C(C(=O)c2ccccc2)C1 (configuration not stated)	0.8
55	O=C(COc1ccc(Cl)cc1)NCc1nnc(SCC(=O)Nc2ccccc2)o1	i
56	O=C(Nc1cccc(Cl)c1N1CCCC1)c1cccc(-c2cc3ccccc3oc2=O)c1	i
57	O=C(C1CCCCC1)N1CCN(c2ncccn2)CC1	i
58	Cc1ccc(S(=O)(=O)N2CCN(CC(=O)NC(=O)NCc3ccccc3)CC2)cc1C	i
59	CCOC(=O)c1[nH]c(C)c(C(=O)Nc2ccc3c(c2)CCC3)c1C	i
60	CCOC(=O)C(O)(c1ccc(NC(=O)NC2CCCCC2)cc1)C(F)(F)F (configuration not stated)	0.9

# Further results follow:
No.	smiles	H5N1 CPE
61	CN(Cc1cc2ccccc2[nH]c1=O)S(=O)(=O)c1ccccc1	0.5
62	O=C(CCN1CCN(CC(=O)Nc2ccccc2Cl)CC1)Nc1ccccc1F	i
63	CCCC(=O)Nc1nnc(CC(=O)OCC)s1	0.2
64	N#Cc1nc(-c2ccc(OCc3ccc(Cl)cc3)cc2)oc1NCc1cccnc1	i
65	Cc1ccc(-c2noc(-c3ccccc3Br)n2)cc1	i
66	Cc1oc(-c2ccccc2F)nc1CS(=O)(=O)CC(=O)N1CCN(c2ccccc2)CC1	0.6
67	CSCCC1NC(=O)NC1=O (configuration not stated)	i
68	O=c1[nH]c(=O)n(Cc2ccco2)c(O)c1C=NCc1ccc2c(c1)OCO2	0.1
69	CN=c1sc2ccccc2n1CC(O)COc1ccccc1 (configuration not stated)	i
70	CSCCNC(C)=O	i
71	COC(=O)c1nc(NC(=O)C(C)(C)C)n[nH]1	i
72	COc1ccc(-n2c(SCC(N)=O)nc3sc4c(c3c2=O)CCN(C)C4)cc1	1.6
73	COc1ccc(OC)c(NC(=O)Cn2cc(C#N)c3cc(Br)ccc32)c1	i
74	Clc1cccc(Cl)c1CNC1CCCC1	0.4
75	Cc1nc(SCC(=O)NCCc2ccccc2)n[nH]1	0.7
76	CC(C)=CCC/C(C)=C/CC/C(C)=N/O	0.5
77	CCc1ccccc1NC(=O)C1C(c2ccccc2)C1(Cl)Cl (configuration not stated)	i
78	Cc1ccccc1NC(=O)C1Cc2ccccc2C(=O)O1 (configuration not stated)	i
79	CCN(CC)c1ccc(-n2cc3c(=O)n(C)c(=O)n(C)c3c2)cc1	3.1
80	CN1C(=O)c2ccc(S(=O)(=O)c3ccc(C(=O)O)cc3)cc2C1=O	0.3
81	CC(=O)Nc1ccc(S(=O)(=O)NCCN2CCOCC2)cc1	0.5
82	CCOP(=O)(OCC)C(c1ccccc1)N(C)C=O (configuration not stated)	0.1
83	O=C(COc1cccc2cccnc12)NCC(F)(F)F	0.1
84	Cc1cccc(N(C(=O)CCC(=O)Nc2ccccn2)C(C(=O)NC(C)C)c2ccc(O)cc2)c1 (configuration not stated)	i
85	O=C(Cn1[nH]c(=O)c2ccccc2c1=O)N1CC=C(c2ccccc2)CC1	5.8
86	COC(=O)c1c(C)nc2ccccc2c1C(=O)O	0.1
87	C=CCOc1nc2c(c(=O)n(C)c(=O)n2C)n1C	1.7
88	C/C(N)=C(/C#N)C(=O)COC(=O)c1cc(S(=O)(=O)N2CCCCC2)ccc1C	0.9
89	Cc1cccc2cc(CN(CC3CCCO3)C(=O)NC3CCCCC3)c(=O)[nH]c12 (configuration not stated)	i
90	CCOC(=O)CC(=O)Nc1c(C)cc(C)cc1C	0.1
91	O=C1NCCCC2c3cc(O)c4ccccc4c3OC12N1CCCCC1 (configuration not stated)	i
92	O=C(Cn1nnc(-c2ccccc2NC(=O)c2ccccc2F)n1)NCc1ccco1	0.1
93	O=C(Nc1nnc(C2CCCO2)s1)c1cccs1 (configuration not stated)	4.3
94	CCC1CC(CSc2ncn[nH]2)OC1=O (configuration not stated)	i
95	COc1ccc(Cl)cc1NC(=O)N(C)Cc1c(C)nn(C)c1C	0.9
96	CC(=O)c1sc(NC(=O)c2cc3c(C)nn(-c4ccccc4)c3s2)nc1C	i
97	Cc1ccc(/C(N)=N/OC(=O)N2CCOCC2)cc1	i
98	Cc1sc2nc3c(C(=O)N4CCN(c5ccccn5)CC4)cccn3c(=O)c2c1C	0.9
99	COc1ccccc1CN1CC(C(=O)NC2CCCCC2)CC1=O (configuration not stated)	i
100	CN(C)C(=O)c1ccc(-n2nc(C(F)(F)F)c3c2CCCC3)cc1	i
101	Cc1cc(C(=O)NC(C)C2CCCO2)cs1 (configuration not stated)	3.7
102	Cc1ccc(C)c(NS(=O)(=O)c2ccc(OCC(=O)NCc3ccco3)cc2)c1	0.3
103	O=C(c1oc(=O)c2ccccc2c1-c1ccccc1)N1CCC(O)CC1	0.1
104	Cc1ccc2c(SCC(=O)NCc3ccco3)nc(-c3ccc(F)cc3)nc2c1	0.8
105	Cc1[nH]c(=O)[nH]c(=O)c1S(=O)(=O)N1c2ccc(F)cc2CCC1C (configuration not stated)	i
106	Cc1ccc(C)c(NC(=O)c2cc3c([nH]c4ccccc43)c(C)n2)c1	0.1
107	COc1ccc2c(c1OC)C(=O)N1C(C(=O)O)Cc3c([nH]c4ccccc34)C21 (configuration not stated)	1.3
108	N#Cc1nc(COc2ccccc2)oc1N1CCC(Cc2ccccc2)CC1	0.4
109	Cc1cccc(N2CCN(C(=O)C3CCN(c4nnc(-n5cccc5)s4)CC3)CC2C)c1 (configuration not stated)	i
110	Cc1ccc(S(=O)(=O)N2CCCC(C(=O)NCc3cccnc3)C2)cc1Cl (configuration not stated)	0.2
111	CCn1c(SCc2nc3ccccc3c(=O)[nH]2)nnc1-c1ccncc1	0.2
112	O=C(O)c1cc(-c2ccco2)nc2ccccc12	0.3
113	O=C(Nc1ccc(Cl)cc1)N1CCCN(Cc2ccc(F)cc2)C1	i
114	O=C(CN1C(=O)CCC1=O)Nc1nc(-c2cccs2)cs1	2.6
115	CS(=O)(=O)N(CC(=O)NC1CCCCC1)c1cccc(Cl)c1	i
116	O=C(CN1C(=O)c2ccccc2C1=O)Nc1cccc2cccnc12	0.2
117	CCS(=O)(=O)N1CCN(C2CCC(C)CC2)CC1 (configuration not stated)	i
118	CC(=O)Cc1nsc(NC(=O)c2ccco2)n1	i
119	Cc1ccc(C(=O)N/C(=C\c2ccc(-c3cc(Cl)ccc3Cl)o2)C(=O)NCc2cccnc2)cc1	i
120	Cc1[nH]c2ccccc2c1CN1CCc2ccccc2C1	i

# In the list so far, these have a COOH group:
No.	smiles	H5N1 CPE
12	O=C(O)CCCNS(=O)(=O)c1ccc(F)cc1	i
22	Cc1c[n+]([O-])n(-c2ccc(C(=O)O)cc2)n1	i
39	Cc1ccc(-c2ccc(CCC(=O)O)n2Cc2ccco2)cc1	0.6
48	O=C(O)c1ccc(CNc2ccccc2C(=O)O)cc1	0.0
80	CN1C(=O)c2ccc(S(=O)(=O)c3ccc(C(=O)O)cc3)cc2C1=O	0.3
86	COC(=O)c1c(C)nc2ccccc2c1C(=O)O	0.1
107	COc1ccc2c(c1OC)C(=O)N1C(C(=O)O)Cc3c([nH]c4ccccc34)C21 (configuration not stated)	1.3
112	O=C(O)c1cc(-c2ccco2)nc2ccccc12	0.3

# Next section:
No.	smiles	H5N1 CPE
121	c1ccc2c(CCNCc3ccc4c(c3)OCO4)c[nH]c2c1	i
122	COc1ccc(-c2coc3cc(O)ccc3c2=O)cc1OC	4.5
123	COc1nc2ccccc2c(=O)n1OCC(C)C	2.1
124	Cc1sc2ncnc(SCC(=O)c3cccs3)c2c1C	i
125	COc1cccc2cc(/C(C)=N/Nc3nc(-c4cc(C)ccc4C)cs3)c(=O)oc12	0.1
126	O=C(Nc1ccc2c(c1)OCO2)C1CCCCN1S(=O)(=O)c1ccccc1 (configuration not stated)	0.1
127	Cc1ccc(N(CCC#N)C(=O)CSc2ccc3c(c2)OCCO3)cc1	2.1
128	CCCC(=O)c1ccc(-c2ccccc2)cc1	i
129	Cc1ccc(C(=O)Nc2sc(C)c(-c3ccccc3)c2C(N)=O)cc1[N+](=O)[O-]	i
130	O=C(Cn1c(=O)oc2cc(S(=O)(=O)N3CCCC3)ccc21)N1CCN(C2CCCCC2)CC1	2.4
131	CC1=C(c2ccc(C)cc2)S(=O)(=O)N(CC(=O)O)C1=O	0.0
132	Cn1c(-c2ccc3c(c2)OCO3)cnc1NCc1cccc(Cl)c1	i
133	Cc1cc(C=C2C(=O)c3ccccc3C2=O)c(C)n1-c1ccc(Cl)cc1	i
134	Cc1ccc(NC2=NC(c3ccccc3)n3c(nc(C)cc3=O)N2)c(C)c1 (configuration not stated)	i
135	CC(C)c1ccc(N2C(=O)CC(Sc3ncn[nH]3)C2=O)cc1 (configuration not stated)	i
136	COc1ccc(-c2cc(CCCC(=O)NCCc3cc(OC)ccc3OC)no2)cc1	i
137	CCOC(=O)N1CCN(C(=O)CCc2c(C)nc3nc(C)nn3c2C)CC1	0.0
138	CCOc1ccccc1N(C)C(=O)C1CCN(S(=O)(=O)c2cccc3nonc23)CC1	i

# In another format: results already given.
129	Cc1ccc(C(=O)Nc2sc(C)c(-c3ccccc3)c2C(N)=O)cc1[N+](=O)[O-]
  H5N1 CPE: i
130	O=C(Cn1c(=O)oc2cc(S(=O)(=O)N3CCCC3)ccc21)N1CCN(C2CCCCC2)CC1
  H5N1 CPE: 2.4
131	CC1=C(c2ccc(C)cc2)S(=O)(=O)N(CC(=O)O)C1=O
  H5N1 CPE: 0.0
